Sa growth 42C – inhibitors of Staphylococcus aureus growth at 42 °C; S. aureus RN4220 growth, OD600, 20 h; active compounds read low; relative growth, % (concentration not given with the values); 170,000 compounds, 0.53% hits; AID 720641;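 active means growth at 42 °C up to 50% and 20 or more points under that at 30 °C, or under 10% at both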;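 further: 300 nL library stock went into each well; scaled to the means of positive and negative controls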
GIV-Gai inh – blocks GIV peptide binding to rat Galpha-i3. Galpha-i3/FITC-GIV peptide fluorescence polarization, 90 min; active compounds read low; scaled: aluminum fluoride 0%, vehicle 100%. 210,000 compounds, 0.42% hits. percent of control (FP), % (no concentration beside the values). AID 1224905. P08753;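 active means replicate mean at 85% of control or lower, very high polarization wells dropped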;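 further: wells of about 15 µL received 100 nL stock; the first replicate is given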
Target sequence (P08753 whole entry, looked up): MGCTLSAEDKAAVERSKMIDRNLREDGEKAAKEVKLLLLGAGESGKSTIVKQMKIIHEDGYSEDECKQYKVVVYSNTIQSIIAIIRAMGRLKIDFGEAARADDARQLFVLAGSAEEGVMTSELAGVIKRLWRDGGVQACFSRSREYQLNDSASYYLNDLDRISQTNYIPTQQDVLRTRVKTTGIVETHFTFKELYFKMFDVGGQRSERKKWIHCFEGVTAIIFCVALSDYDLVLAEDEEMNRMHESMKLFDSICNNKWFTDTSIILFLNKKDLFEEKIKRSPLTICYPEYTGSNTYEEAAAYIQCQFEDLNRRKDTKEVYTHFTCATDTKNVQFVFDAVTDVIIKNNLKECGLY
HCMV UL50-53 inh – inhibitors of HCMV UL50-UL53 nuclear egress complex interaction; AID 1918969; inhibition, % (concentration not given with the values); 190,000 compounds, 0.15% hits; HTRF UL50-UL53 interaction, normalized percent inhibition;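 active means both replicates at 50% or more, plus weaker picks with an unusually low signal ratio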;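 further: stock transfer was 100 nL into about 20 µL; 0% = negative control wells and 100% = wells with untagged competitor protein; inactives centre near -12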
Sa growth 42C second temp – also measured in Sa growth 42C; calls as there; relative growth, %; measured here: growth at 30 °C;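 optical density after 20 h as mean of two plates; 100% = untreated growth and lower means inhibition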
* marks the source's active call; other numbers are inactive results; · = no result given; & = joins results of further samples.

Key to letters – A = Sa growth 42C; B = Sa growth 42C second temp; C = GIV-Gai inh; D = HCMV UL50-53 inh
1	CCc1ccc(NC(=O)c2sc3nc4c(cc3c2N)CN(CC)CC4)cc1
  A: 109	B: 95	C: 108	D: -68

2	CCCCc1nc(SCC(=O)Nc2ncccn2)n[nH]1
  A: 87	B: 85	C: 101	D: -16

3	O=C(Nc1cccc2ccccc12)OCC(F)(F)F
  A: 132	B: 99	C: 102	D: -16

4	Cc1cc(C)nc(Nc2n[nH]c(Cc3ccccc3)n2)n1
  A: 95	B: 81	C: 106	D: -12

5	CC(=O)N=c1scc(-c2ccccc2)n1-c1ccc(Cl)cc1
  A: 103	B: 88	C: ·	D: -14

6	CCOC(=O)CSc1nc2ccc(NC(=O)c3ccccc3F)cc2s1
  A: 106	B: 82	C: 101	D: -28

7	Cc1c(NC(=O)c2ccccc2)cc(C(C)C)c(O)c1S(=O)(=O)c1ccc(Cl)cc1
  A: 91	B: 99	C: 103	D: ·

8	O=S(=O)(CCCCl)c1nc2ccccc2s1
  A: 122	B: 67	C: ·	D: -29

9	O=C(NCCC1=CCCCC1)C1CCN(c2cc(-c3ccc(F)cc3)ncn2)CC1
  A: ·	B: ·	C: 103	D: -36

10	OCCN1CCSC1=Nc1ccccc1C(F)(F)F
  A: 83	B: 88	C: ·	D: -12

11	O=C(NCc1cccnc1)c1ccc(-c2cccs2)s1
  A: 91	B: 69	C: 97	D: -56

12	O=C(/C=N/O)Nc1ccccc1
  A: 94	B: 87	C: 104	D: -7

13	O=C(Nc1ccc(Cl)cn1)c1cc(-c2ccccn2)nc2ccccc12
  A: ·	B: ·	C: 106	D: -9

14	NC1=NC(=O)/C(=C/c2ccccc2OCc2ccc([N+](=O)[O-])cc2)S1
  A: ·	B: ·	C: 106	D: 15

15	CCOc1ccc(CCNC(=O)c2cc(=O)[nH]c3ccc(S(=O)(=O)N4CCCC4)cc23)cc1OCC
  A: 81	B: 85	C: 109	D: 5

16	COc1ccccc1N1CCN(CC(O)COc2cc(C)cc(C)c2)CC1 (configuration not stated)
  A: 89	B: 90	C: 100	D: -9

17	N#C/C(=C\Nc1cccc(C(F)(F)F)c1)c1nc(-c2cc3cc(Br)ccc3oc2=O)cs1
  A: ·	B: ·	C: 103	D: -22

18	Cc1cc(O)c(NC(=O)c2ccc3c(c2)OCCO3)cc1C
  A: ·	B: ·	C: 104	D: -8

19	C=CCC1C(=S)SC(C(=O)OCC)=C1NC(=O)c1cccs1 (configuration not stated)
  A: 88	B: 98	C: ·	D: -5

20	CC(=O)Nc1c(C(=O)Nc2ccccc2F)oc2ccccc12
  A: 95	B: 96	C: 104	D: 9

21	CCOC(=O)N1CCC(Nc2nc(OC)nc(OC)n2)CC1
  A: 129	B: 92	C: 96	D: ·

22	Cc1ccc(-c2cnc(SCC(=O)N3CCCC3=O)n2C)cc1
  A: 116	B: 108	C: ·	D: 17

23	CC(C)CCN(Cc1ccco1)C(=O)c1cc2c(Cl)nc3ccccc3c2s1
  A: 111	B: 90	C: 99	D: -41

24	Cc1c(Cl)cccc1NC(=O)C(CCS(C)(=O)=O)N1Cc2ccccc2C1=O (configuration not stated)
  A: 97	B: 82	C: 103	D: ·

25	COc1ccc(OCCOC(=O)C23CCC(=O)N2c2ccccc2C(=O)N3C2CC2)cc1 (configuration not stated)
  A: 91	B: 95	C: ·	D: -15

Profiles from above. Order of values: Sa growth 42C	Sa growth 42C second temp	GIV-Gai inh	HCMV UL50-53 inh
C=CCC1C(=S)SC(C(=O)OCC)=C1NC(=O)c1cccs1 (configuration not stated) reads 88	98	·	-5
Cc1c(Cl)cccc1NC(=O)C(CCS(C)(=O)=O)N1Cc2ccccc2C1=O (configuration not stated) reads 97	82	103	·
OCCN1CCSC1=Nc1ccccc1C(F)(F)F reads 83	88	·	-12
CC(=O)Nc1c(C(=O)Nc2ccccc2F)oc2ccccc12 reads 95	96	104	9
O=S(=O)(CCCCl)c1nc2ccccc2s1 reads 122	67	·	-29

Next records follow:
Key to letters – A = Sa growth 42C; B = Sa growth 42C second temp; C = GIV-Gai inh; D = HCMV UL50-53 inh
26	CN(C)CCn1c2ccccc2n2cc(-c3ccc(F)cc3)nc12
  A: ·	B: ·	C: 96	D: -16

27	COc1cccc(-n2c(SCC(=O)Nc3cccc(Cl)c3)nc3c(oc4ccccc43)c2=O)c1
  A: 74	B: 54	C: 103	D: -34

28	CCOC(=O)CSc1cc(C)c(Cl)cc1C
  A: 107	B: 99	C: 105	D: -8

29	COc1ccc(CNS(=O)(=O)c2cc3c(cc2C)N(C)CCO3)cc1
  A: 110	B: 96	C: 96	D: ·

30	c1ccc(CSc2nncn3c2cc2sccc23)cc1
  A: 100	B: 83	C: 99	D: ·

31	CC(C)Cc1ccc(C#N)c(SCC(=O)c2ccccc2)n1
  A: 56	B: 74	C: 104	D: -15

32	CCC(Sc1nc2c(c(=O)[nH]1)CCCC2)C(=O)Nc1ccccc1OC (configuration not stated)
  A: 97	B: 88	C: 104	D: -7

33	CCc1ccc(-n2nc(C)c3c(C)cc(OCc4cc(=O)n5ccccc5n4)nc32)cc1
  A: ·	B: ·	C: 100	D: 4

34	CCOC(=O)c1ccccc1NC(=O)CSc1nc2cn(CC)nc2c(=O)n1Cc1ccc(Cl)cc1
  A: 90	B: 88	C: 105&97	D: -15&-3

35	COc1cccc(-c2cn3c(n2)sc2cc(C(=O)NCC4CCCO4)ccc23)c1 (configuration not stated)
  A: 88	B: 66	C: 104	D: -26

36	CCn1cc(C(=O)N2CCN(C)CC2)c(=O)c2cc(S(=O)(=O)N(C)C)ccc21
  A: 99	B: 87	C: 102	D: ·

37	CC1(C(=O)NC2CCCCC2)Cn2c(cc3occc32)C(=O)N1C1CCCCC1 (configuration not stated)
  A: ·	B: ·	C: 101	D: 5

38	COC(=O)c1ccccc1NC(=O)c1cnn(-c2ccc(F)cc2)c1-n1cccc1
  A: 103	B: 95	C: 100	D: ·

39	CCOc1ccc(S(=O)(=O)N(CC)CC(=O)NCC2CCCO2)cc1 (configuration not stated)
  A: 78	B: 77	C: 103	D: 21

40	CCOC(=O)c1nnn(CC(=O)Nc2cc(C)cc(C)c2)c1C(=O)OCC
  A: 93	B: 64	C: 102	D: -5

41	CCOc1cccc(C(=O)Nc2cc(C)c(O)c(-c3nc4ncccc4o3)c2)c1
  A: 108	B: 91	C: 103	D: -7

42	CN1CC=C(/C=C/c2ccc(N3CCCCC3)cc2)CC1
  A: 99	B: 100	C: 117	D: -17

43	N#Cc1c(N)n(-c2ccc(C(F)(F)F)cc2)c2nc3ccccc3nc12
  A: 107	B: 90	C: ·	D: 1

44	C=CCc1c(C)[nH]c(=S)[nH]c1=O
  A: 102	B: 83	C: 102	D: -34

45	CN(C)/C=N/N=C(\Cc1nc2ccccc2[nH]1)c1ccccc1
  A: 99	B: 90	C: ·	D: -14

46	O=C(NCc1ccccc1)C1CCCCN1S(=O)(=O)c1ccc(F)cc1 (configuration not stated)
  A: ·	B: ·	C: 109	D: 4

47	CCCn1c(=O)c2oc(C)cc2n(-c2ccccc2C)c1=O
  A: 95	B: 90	C: 104	D: -23

48	Cc1cc(C)cc(NC(=O)C/C(N)=N/O)c1
  A: 129	B: 94	C: 100	D: -6

49	Cc1cc(C(=O)CSc2nc(N)cc(=O)[nH]2)c(C)n1C
  A: 98	B: 90	C: ·	D: -30

50	CCN(CC)S(=O)(=O)c1ccc(/C=C/C(=O)OCc2nnc(-c3ccccc3)o2)cc1
  A: 101	B: 90	C: ·	D: -18

51	Cc1ccc(NC(=O)c2ncoc2-c2ccco2)cc1Cl
  A: 99	B: 98	C: 108	D: ·

52	CCc1nc2nc3c(c(Nc4ccc(Br)c(C)c4)n2n1)CCC3
  A: ·	B: ·	C: 108	D: -2

53	CC(=O)NCCNC(=O)c1ccc(Nc2nn3c(=O)c4ccccc4nc3s2)cc1
  A: ·	B: ·	C: 104	D: -6

54	CC(CNC(=O)C1CCN(C(=O)N2CCOc3ccc(Cl)cc32)CC1)c1ccccc1 (configuration not stated)
  A: 108	B: 93	C: 102	D: -10

55	COC(=O)c1sccc1NC(=O)c1csc2ccccc12
  A: 106	B: 95	C: 104	D: -8

56	CCCc1cc(C(=O)NCCc2ccc(OC)c(OC)c2)no1
  A: 104	B: 78	C: 101	D: -9

57	O=C(CSc1nc2ccccc2o1)NC(=O)CSc1nc2ccccc2o1
  A: 88	B: 86	C: 102	D: -6

58	O=C(Nc1ccc2c(c1)OCCO2)C1CC1
  A: 98	B: 87	C: 105	D: -8

59	O=C(COC(=O)Cc1cn2ccsc2n1)Nc1nc2ccccc2s1
  A: 94	B: 95	C: ·	D: -20

60	COc1ccc(OCC(=O)Nc2ccc3c(c2)nc(CCNC(C)=O)n3C)cc1
  A: ·	B: ·	C: 102	D: -22

61	Cc1nc2c3ccccc3n3c(CCCC(=O)NC(C)C)nnc3n2n1
  A: 101	B: 89	C: 101	D: -2

62	CCCS(=O)(=O)c1ncc(Cl)c(C(=O)Nc2scc(-c3ccccc3)c2C(=O)OCC)n1
  A: 105	B: 56	C: 109	D: -10

63	O=C(c1cc2nc(-c3ccco3)cc(C(F)(F)F)n2n1)N1CCCc2ccccc21
  A: 95	B: 99	C: 104	D: 27

64	N#Cc1c(/N=C/N2CCCC2)sc2c1CCCCC2
  A: 106	B: 98	C: 107	D: ·

65	Cc1cc(-c2nn3c(-c4ccc(C(C)(C)C)cc4)nnc3s2)no1
  A: ·	B: ·	C: 103	D: -9

66	Cc1csc(NC(=O)C(F)(F)F)c1C(N)=O
  A: 74	B: 18	C: 99	D: -20

67	N#Cc1ccc(-c2cccnc2)n(CC(=O)NC2CCCCC2)c1=O
  A: 88	B: 80	C: 104	D: -23

68	O=C(CC1OCCN(Cc2ccccc2)C1=O)Nc1cccc(Cl)c1 (configuration not stated)
  A: 82	B: 74	C: 98	D: 4

69	CCC(C)(C)NC(=O)c1ccc(S(=O)(=O)N2CCCC2)cc1
  A: 105	B: 102	C: ·	D: 8

70	CCc1ccc(NC(=O)CN2C(=O)C(c3ccc(Cl)cc3)=NC23CCCCC3)cc1
  A: 103	B: 87	C: 100	D: -25

71	CCOCCCN(C(=O)Nc1ccc(Cl)cc1)C1CCN(C(C)=O)CC1
  A: 87	B: 72	C: 101	D: ·

72	COc1ccc(-c2nn(-c3ccccc3)cc2C(=O)N2CCOCC2)cc1
  A: 98	B: 86	C: ·	D: -18

73	N=c1ncn(CC(O)CO)c2nc(Br)[nH]c12 (configuration not stated)
  A: 110	B: 91	C: 99	D: ·

74	C1=NCCCC12CCCCC2
  A: 101	B: 76	C: 101	D: -213

75	Cc1ccc2cccc(OC(=O)c3ccc(OCc4c(C)noc4C)cc3)c2n1
  A: 105	B: 110	C: ·	D: 27

Next part
Key to letters – A = Sa growth 42C; B = Sa growth 42C second temp; C = GIV-Gai inh; D = HCMV UL50-53 inh
76	CC(=O)N1NC(=Nc2ccccc2)SC1(C)C
  A: 94	B: 78	C: 101	D: -7

77	Cc1ccc(C)c(S(=O)(=O)c2nnn3c2nc(NC2CCCC2)c2sccc23)c1
  A: 119	B: 91	C: 99	D: ·

78	CCN(Cc1ccccc1)c1ncc(NS(C)(=O)=O)cc1C(=O)O
  A: ·	B: ·	C: 117	D: -22

79	O=C(O)c1ccccc1C(=O)N(Cc1cccnc1)Cc1ccc(Cl)cc1Cl
  A: 116	B: 76	C: 105	D: 2

80	COc1ccccc1C(=O)NC(=O)CSc1nnnn1C
  A: 87	B: 93	C: ·	D: -8

Single values from above:
compound 62 in GIV-Gai inh shows 109
compound 10 in Sa growth 42C second temp shows 88
compound 27 in GIV-Gai inh shows 103
compound 3 in HCMV UL50-53 inh shows -16

Compounds from the list above that have an NH in an aromatic ring:
Key to letters – A = Sa growth 42C; B = Sa growth 42C second temp; C = GIV-Gai inh; D = HCMV UL50-53 inh
2	CCCCc1nc(SCC(=O)Nc2ncccn2)n[nH]1
  A: 87	B: 85	C: 101	D: -16

4	Cc1cc(C)nc(Nc2n[nH]c(Cc3ccccc3)n2)n1
  A: 95	B: 81	C: 106	D: -12

15	CCOc1ccc(CCNC(=O)c2cc(=O)[nH]c3ccc(S(=O)(=O)N4CCCC4)cc23)cc1OCC
  A: 81	B: 85	C: 109	D: 5

32	CCC(Sc1nc2c(c(=O)[nH]1)CCCC2)C(=O)Nc1ccccc1OC (configuration not stated)
  A: 97	B: 88	C: 104	D: -7

44	C=CCc1c(C)[nH]c(=S)[nH]c1=O
  A: 102	B: 83	C: 102	D: -34

45	CN(C)/C=N/N=C(\Cc1nc2ccccc2[nH]1)c1ccccc1
  A: 99	B: 90	C: ·	D: -14

49	Cc1cc(C(=O)CSc2nc(N)cc(=O)[nH]2)c(C)n1C
  A: 98	B: 90	C: ·	D: -30

73	N=c1ncn(CC(O)CO)c2nc(Br)[nH]c12 (configuration not stated)
  A: 110	B: 91	C: 99	D: ·

From PubChem BioAssay
